Calb biofilm kill = mixture kills Candida albicans biofilm cells; C. albicans biofilm persisters + clotrimazole, fluorescence viability; primary screen in compound mixtures of four per well; inhibition, % at 7.6 µM; 0.02% of 120,000 active; AID 1242;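 active means inhibition above 30.3% in the primary screen of four-compound pools, then above 30% when the compound was retested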;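 further: compounds exposed to preformed 24 h biofilms for 48 h; the number belongs to the whole pool; some results filed as inactive read as strong as hits; inactives centre near 12; 0% = biofilm with clotrimazole alone and 100% = kill control; retested singly at about 60 µM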
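Test system: C. albicans biofilms. Buffer or medium: RPMI/MOPS medium, pH 7.0. Timing: 48 h compound exposure at 37 °C. Technique: Alamar Blue fluorescence. Evaluation: percent inhibition of biofilm viability.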
* marks the source's active call; other numbers are inactive results. Some of the compounds tested. The share of hits here may be higher or lower than overall.

SMILES	Calb biofilm kill
CCSc1nnc(Cc2cc(=O)[nH]c(=O)[nH]2)n1-c1cccc(C)c1	16.2
COC(=O)Cc1ccc(O)c(N)c1	2.6
CC1CCCN(c2nc(NCc3ccco3)nc(N)c2[N+](=O)[O-])C1 (centres undefined)	12.3
COc1ccc(-n2c3c(c(=O)[nH]c2=O)C(NC(C)=O)(C(F)(F)F)C(=O)N3)cc1 (centres undefined)	15.3
CC(C)(C)C1CCC(=NNC(=O)CN(c2ccccc2)S(C)(=O)=O)CC1 (centres undefined)	14.7
Cc1ccc(NC(=O)COC(=O)COc2ccc(Cl)cc2C)c([N+](=O)[O-])c1	12.8
O=c1[nH][nH]c(=S)n1-c1ccccc1C(F)(F)F	17.3
COc1ccc(C(=O)N2N=C(c3cccc(OC)c3)CC2(O)C(F)(F)F)cc1 (centres undefined)	16.9
Cc1cc(C)c(NC(=O)Cc2ccc(-n3cccc3)cc2)c(C)c1	4.9
O=S(=O)(c1ccccc1F)N1CCN(c2nc3ccccc3s2)CC1	21.9
CCOc1ccc(NC(=S)NCc2nc3ccccc3[nH]2)cc1	12.7
O=C(NCC1(c2ccccc2)CCCC1)c1ccc(Br)o1	8.2
O=C(NCc1cccs1)C1CCCN1C(=O)Nc1cccc(F)c1 (centres undefined)	15.9
CCOC(=O)c1ccccc1NC(=O)c1cn(-c2ccc(C)c(C)c2)c(=O)c2ccccc12	12.6
CC(=O)Nc1cccc(NC(=O)CSc2ccc3nnc(CCNC(=O)c4ccccc4)n3n2)c1	13.2
CC(C)(C)C(=O)NNC(=O)c1ccc(Oc2cc(Cl)cc(Cl)c2)o1	25.5
CN(C)S(=O)(=O)N1CCN(S(=O)(=O)N2CCOCC2)CC1	7.1
CS(=O)(=O)Nc1ccc(C2=NN(C(=O)c3ccco3)C(c3cccc(F)c3)C2)cc1 (centres undefined)	9.4
O=c1c(Cc2c(F)cccc2Cl)c(O)ccn1Cc1ccc(F)cc1	12.8
Cc1c(C(=O)NCCCn2ccnc2)oc2ccccc12	9.6
CCCC[C@@H]1C[C@H]1[C@@H](NC(=O)c1ccco1)c1ccc(Cl)cc1	17.0
COc1ccccc1N(C)S(=O)(=O)c1ccc(C(=O)Nc2nc(C)cs2)cc1	20.2
CCS(=O)(=O)NCCNc1ccc([N+](=O)[O-])cc1	15.4
COc1ccc(C2=CSC3=NNC4(CCCCC4)NN23)cc1	13.3
O=C(O)c1cccc(NC2=Nc3cccc4cccc2c34)c1	29.2
Oc1c(C=C2N=c3ccccc3=N2)sc(=S)n1-c1ccccc1	-14.3
CC(=O)Cn1ncc(Br)c(Br)c1=O	15.6
N=C1S/C(=C\c2ccco2)C(=O)N1c1ccc2c(c1)OCO2	-9.9
CCCCC(=O)N1CCCC(C)C1 (centres undefined)	21.8
CC(NS(C)(=O)=O)C(c1cccs1)N1CCN(c2ccccc2F)CC1 (centres undefined)	13.9
COc1cccc(NC(=S)NCc2cccs2)c1	5.8
Cc1cccc(NC(=O)CN2C(=O)S/C(=C\c3ccc(O)c([N+](=O)[O-])c3)C2=O)c1	11.2
COc1ccc(S(=O)(=O)N2CCOCC2)cc1NC(=O)c1cc2c(s1)CCCC2	-9.5
CC(=O)Nc1ccc(CN2CCCC(C(=O)c3cccc(C(F)(F)F)c3)C2)cc1 (centres undefined)	10.9
Cc1ccc(C(=S)N2CCN(Cc3ccccc3)CC2)s1	-12.1
COC(=O)c1cc(NS(=O)(=O)c2cccc(Cl)c2)ccc1N1CCOCC1	7.1

A draw from above in order of number of heavy atoms, ascending:
SMILES	Calb biofilm kill
CC(=O)Cn1ncc(Br)c(Br)c1=O	15.6
COc1cccc(NC(=S)NCc2cccs2)c1	5.8
Cc1ccc(C(=S)N2CCN(Cc3ccccc3)CC2)s1	-12.1
Oc1c(C=C2N=c3ccccc3=N2)sc(=S)n1-c1ccccc1	-14.3
CC(NS(C)(=O)=O)C(c1cccs1)N1CCN(c2ccccc2F)CC1 (centres undefined)	13.9
COC(=O)c1cc(NS(=O)(=O)c2cccc(Cl)c2)ccc1N1CCOCC1	7.1
Cc1cccc(NC(=O)CN2C(=O)S/C(=C\c3ccc(O)c([N+](=O)[O-])c3)C2=O)c1	11.2

Next section
SMILES	Calb biofilm kill
Cc1cc([N+](=O)[O-])nn1CCCC(=O)NCc1ccccc1	6.4
C=CCNC(=O)Nc1ccc(Br)cc1Cl	14.9
O=C(NC(n1ccc(=O)[nH]c1=O)C(Cl)(Cl)Cl)C12CC3CC(CC(C3)C1)C2 (centres undefined)	-3.9
CC(C)C(=O)Nc1ccc([N+](=O)[O-])cc1Br	20.6
CCn1cc(C(=O)O)c(=O)c2cc(F)c(N3CCN(S(=O)(=O)c4ccc(Br)cc4)CC3)cc21	13.2
CC1(C)CC(=O)C(N=Nc2cc3c(cc2[N+](=O)[O-])OCCO3)=C(O)C1	8.2
CCCCN(C(=O)c1cc2ccccc2o1)c1c(N)n(CCC)c(=O)[nH]c1=O	25.1
COCCNC(=O)CCSc1nc(-c2ccc(OC)cc2)cc(C(F)(F)F)n1	18.7
CC(C)CC(=O)N=C1SC2CS(=O)(=O)CC2N1Cc1ccccc1 (centres undefined)	14.6
CC1CCN(c2ccc(C(=O)NCc3ccc4c(c3)OCO4)cc2[N+](=O)[O-])CC1	22.4
CC(C)(C)NS(=O)(=O)c1cc(C(=O)O)ccc1Cl	-2.9
Fc1ccccc1Cn1cnc(NC(=S)NCCc2ccccc2)n1	7.9
CC(Oc1ccc2c(=O)c(-c3ccc(Cl)cc3)c(C(F)(F)F)oc2c1)C(=O)O (centres undefined)	19.1
O=C(O)Cc1cn(Cc2ccc(F)cc2)c2ccccc12	10.3
Cc1nc(N=Nc2ccc(O)cc2)n[nH]1	19.6
Cn1c(=O)c(N)c2c3c(c(Br)ccc31)C(=O)c1ccccc1-2	8.9
CN(C)C(=O)CSc1nnc([C@H](Cc2c[nH]c3ccccc23)NC(=O)OC(C)(C)C)o1	14.8
O=C(CCCN1C(=O)/C(=C/c2cccs2)SC1=S)Nc1ccc(O)c(C(=O)O)c1	6.0
O=C(O)C/C(=C\c1ccc(N2CCOCC2)c([N+](=O)[O-])c1)c1nc2ccccc2s1	19.5
Cc1ccc(C(OCC(C)(C)C[N+](C)(C)C)c2ccccc2)cc1 (centres undefined)	12.0
CCSc1ccc(-c2nn(-c3ccccc3)cc2/C=C(/C#N)C(=O)NCCCOC)cc1	9.7
COC(=O)c1ccc(CNC(=O)COC(=O)CCC2CCCC2)cc1	17.2
C=CCn1c2ccccc2c2nnc(SCc3[nH]c(=O)[nH]c3C(=O)CCCCC(=O)OCC)nc21	16.0
CCN(CC)CCn1c(=N)n(CC(O)c2ccc(OC)c(OC)c2)c2ccccc21 (centres undefined)	15.7
O=C(NNC(=S)NC(=O)c1cn(-c2ccccc2)nc1-c1ccccc1)c1ccncc1	12.3
CCN1CCN(Cc2nc3c(c(=O)n(C)c(=O)n3C)n2CCc2ccccc2)CC1	13.5
CN(C)CCNC(=O)c1onc(CSc2ccc(F)cc2)c1C(=O)NCCN(C)C	11.9
C[C@@H]1NC(=O)c2cc([N+](=O)[O-])cc(I)c2OCC[C@@H](C(N)=O)NC(=O)[C@H](CCC(=O)O)NC1=O	18.1
CC(/C=N\NC(=O)c1cc(C)oc1C)=C\c1ccccc1	12.3
CCN1CCN(CC(O)COCC2COc3ccccc3O2)CC1 (centres undefined)	1.3
O=C(Nc1nnc(-c2cccnc2)s1)c1cccs1	5.2
Cn1c(CSCCOc2ccccc2)n[nH]c1=S	5.4
O=C(NC1CC1)C1CCN(C2CCN(C(=O)CCOc3ccccc3)CC2)CC1	13.3
CCCCN(C(=O)CCC(=O)Nc1cc(C)on1)C(C(=O)NC(C)(C)CC)c1cccc(OC)c1OC (centres undefined)	20.5
CCCc1nnc(SCC(=O)N2CCCC(C)C2)n1CCOC (centres undefined)	7.7
CCOC(=O)/C(C#N)=C/Nc1ccccc1NS(=O)(=O)c1cccc(C(C)=O)c1	10.8
CCCCCOC(=O)C1C(c2ccccc2)C(C(=O)O)C1c1ccccc1 (centres undefined)	20.4
Cc1ccc(C(C(=O)NC2CCCCC2)N(Cc2ccccc2)C(=O)Cc2c[nH]c3ccccc23)o1 (centres undefined)	15.5
Cc1nc(N2CCN(Cc3ccc(Cl)cc3)CC2)c2oc3ccccc3c2n1	12.3
COC(=O)COc1cccc2c(=O)n(CC(=O)NCc3ccc(F)cc3)ccc12	16.6
CN(C)S(=O)(=O)Oc1ccsc1C(=O)Nc1ccc(C(F)(F)F)cc1	4.1
Cc1ccc(SCC(=O)Nc2ccc(S(=O)(=O)Nc3nccs3)cc2)cc1	22.5
CCN1CC(CN(C)Cc2nc(COc3ccccc3)no2)CC1=O (centres undefined)	11.6
CCOP(=O)(OCC)c1nc(-c2ccc(Cl)cc2Cl)oc1N1CCOCC1	8.4
CC1(C)C(=O)OC(c2c3ccccc3cc3ccccc23)C(C)(C)C1=O (centres undefined)	12.1
Cc1cccc(CN2C[C@]34C=C[C@@H](C[C@@H]3S2(=O)=O)O4)c1	11.1
COc1ccc(/C=N/N=C2/NC(=O)CC(C(=O)O)S2)cc1 (centres undefined)	15.2
OCCCc1cn(-c2ccccc2)c2ccccc12	12.5
CC(=O)Nc1ccc(OCC(O)CN2CCN(c3ccccc3Cl)CC2)cc1 (centres undefined)	19.5
CCN1C(=O)CC(C(=O)NCCc2ccc(S(N)(=O)=O)cc2)SC1=Nc1ccc(OC)cc1 (centres undefined)	10.8
COc1ccccc1CN1C[C@@H]2C[C@@H](c3ccc(C)c(C)c3)N3CCC[C@@]23C1=O	-12.7
Cn1cccc1/C=C1\SC(=S)N(Nc2ccccc2)C1=O	16.2
CC(C)c1ccc(NC(=O)COC(=O)/C=C/c2cccc([N+](=O)[O-])c2)cc1	14.1
Cc1ccc(CC(=O)Nc2ccc([N+](=O)[O-])cc2C)cc1	8.5
Cc1ccccc1S(=O)(=O)NCc1ccc(N2CCN(C)CC2)cc1	26.1
O=C(NCCc1ccccc1)c1ccco1	14.8
CCCCCC(=O)NNC(=O)c1c(O)c2ccccc2n(CC)c1=O	10.8
Fc1ccc(CSc2ncnc3c2oc2ccccc23)cc1	13.5
Cc1cccc(NC(=O)c2ccc([N+](=O)[O-])o2)c1	15.5
Cc1nnc2n(-c3ccccc3)c(=O)c3c4c(sc3n12)CCCC4	8.9

(cont.)
SMILES	Calb biofilm kill
O=C(O)CC/C(=N/NC(=O)CNC(=O)C(c1ccccc1)c1ccccc1)c1ccccc1	24.8
COc1cccc2cc(C(C)N(CCCN3CCOCC3)C(=S)Nc3cccc(C)c3)oc12 (centres undefined)	9.1
O=C1c2nc3cc(-c4ccco4)[nH]n3c(=O)c2CN1C1CCCCC1	23.5
CC(C)OCCCNC(=S)NNC(=O)C(c1ccccc1)c1ccccc1	11.4
NC(N)=NC1=NC(=O)/C(=C/c2ccccc2-n2cccn2)S1	7.5
CN(C)CCOc1ccc2c(c1)Sc1ccccc1CC2=O	6.1
O=C(COc1cccc2c1CCN(Cc1ccc(Cl)cc1)C2=O)N1CCOCC1	14.8
C=CCNC(=O)Nc1ccc(Cl)cn1	18.3
Cc1ccc(NC(=O)Cn2nnc(C(=O)NCc3cccs3)c2N)cc1	18.0
COc1cccc(NC(=O)OCCN2CCN(Cc3ccccc3)CCC2=O)c1	8.7
Cc1c(C(=O)OCCOc2ccc(Br)cc2)sc(=S)n1C	3.7
CC(C)CCNC(=O)c1onc(CSc2ccc(F)c(F)c2)c1C(=O)NCCC(C)C	6.2
CCc1ccc2[nH]c(=O)c(CN(Cc3ccco3)C(=S)NCC3CCCO3)cc2c1 (centres undefined)	9.5
CC1=CC(C)(C)N(C(=O)CCl)c2ccccc21	7.9
CC(=O)Nc1nnc(SCC(=O)Nc2ccc(N3CCOCC3)c(Cl)c2)s1	20.3
COC(=O)COc1cccc(NS(=O)(=O)c2cccc([N+](=O)[O-])c2)c1	18.7
Cc1cc(=O)[nH]c(N/N=C/c2c[nH]c3ccccc23)n1	16.2
Cc1cc(C(=O)NNc2cc(Cl)ccc2Cl)no1	22.4
COc1ccc(OCCCC(=O)NCCc2nc3ccccc3[nH]2)cc1	1.0
Cc1nc2ccccn2c1C(=O)N=Nc1c(O)[nH]c2ccccc12	19.9
CC1CCCCC12NC(=O)N(CC(=O)NC1CCCc3ccccc31)C2=O (centres undefined)	15.6
C=CCC1c2cccc(C(=O)O)c2C(=O)N1c1cccc(OC)c1 (centres undefined)	1.8
CCN(CC)CC(=O)Nc1cc(N(C)C)nc2ccccc12	23.8
Cc1cc(C)c(NC(=O)NC2CCCCC2)c(C)c1	16.0

Five entries from above, bar-delimited.
mol | Calb biofilm kill
CC(=O)Nc1nnc(SCC(=O)Nc2ccc(N3CCOCC3)c(Cl)c2)s1 | 20.3
COC(=O)COc1cccc(NS(=O)(=O)c2cccc([N+](=O)[O-])c2)c1 | 18.7
Cc1cc(=O)[nH]c(N/N=C/c2c[nH]c3ccccc23)n1 | 16.2
Cc1cc(C(=O)NNc2cc(Cl)ccc2Cl)no1 | 22.4
COc1ccc(OCCCC(=O)NCCc2nc3ccccc3[nH]2)cc1 | 1.0

(continued)
SMILES	Calb biofilm kill
O=C(/C=C/c1cccc(Cl)c1)NCc1ccncc1	10.3
O=C(O)C12CC3CC(C1)CC(n1ncc(N4CCN(c5ccccc5)CC4)c(Cl)c1=O)(C3)C2	6.5
O=C(COC(=O)C1CCN(S(=O)(=O)c2cccs2)CC1)Nc1ccccc1	9.0
O=S(=O)(c1ccccc1)c1nc(-c2ccccc2)oc1N1CCCC1	15.9
CC1CCN(C(=O)CSc2nc3ccccc3c(=O)[nH]2)CC1	10.0
O=C(Nc1nnc(-c2ccccc2)o1)c1nc2ccccc2s1	21.3
CCN(CC)C(=O)CSc1ncccc1-c1nc2ccccc2[nH]1	2.4
O=c1[nH]c(CN2CCN(S(=O)(=O)c3ccc4ccccc4c3)CC2)nc2ccccc12	0.4
N/C(=N\OC(=O)c1ccc(=O)n(Cc2ccc(Cl)cc2)c1)c1ccccn1	1.8

Screening results: PubChem, PCMD
